PK Bst = alters activity of Bacillus stearothermophilus pyruvate kinase. partly purified Bacillus stearothermophilus pyruvate kinase, luminescence ATP production; ribose 5-phosphate activator present at AC10. Potency, µM. hit rate 1.2% among 51,000; in the data active means potency below about 11 µM; inconclusive means mostly about 12 µM to 25 µM; inactive means weaker than that;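 the screen sought inhibitors and activators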;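 note: potency is the fitted concentration of half-maximal effect; scaled between full activation by ribose 5 phosphate and full inhibition by luteolin; about four in five hits inhibit and the cells do not say which; series up to 57 µM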
TsaE inh = inhibitors of E. coli YjeE (TsaE); P0AF67; purified YjeE, fluorescence polarisation of a bound ADP probe; hit rate 0.05% among 71,000; Potency, µM; active = well fitted falling curve; inconclusive = weaker or top-dose-only fall, or a rising curve; inactive = flat or poorly fitted curve;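 note: top concentration of the series not given in the record; excess ADP was the control for the full effect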
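Purified YjeE (10 uM) with BODIPY Texas Red-labeled ADP probe (2 uM); compounds pin-transferred, 15 min at room temperature. Binding inhibition read as decreased fluorescence polarization; ADP titration as control.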
* = called active by the depositor; i = inactive; ? = inconclusive; / = no result given. This is a subset (hit frequency here may not be typical).

Compound | PK Bst | TsaE inh
CCOC(=O)N1CCN(c2c(N3CCN(c4ccccn4)CC3)c(=O)c2=O)CC1 | / | i
Brc1cc2c(cc1COc1ccc(-c3nn[nH]n3)cc1)OCO2 | >57 | i
CN(C)c1ccc(C(=O)c2ccc(N(C)C)c(N)c2)cc1N | >57 | i
Cc1cc(=O)n2nc(N3CCCC(C(=O)NCc4ccc5c(c4)OCO5)C3)sc2n1 (stereo not drawn) | >57 | i
COC(=O)c1ccc(Cl)c(NS(=O)(=O)c2ccc3c(c2)OCCO3)c1 | >57 | i
COc1ccccc1N=c1oc2cc(O)ccc2cc1C(=O)NCC1CCCO1 (stereo not drawn) | 2.6* | i
C[C@@H](COc1ccc(/C=C\c2ccccc2)cc1)[N+](C)(C)C | / | i
CCn1c(=O)cc(SCC(=O)N2CCN(Cc3ccc4c(c3)OCO4)CC2)c2ccccc21 | >57 | i
CCCCOc1ccc(C(=O)O)cc1 | >57 | i
COc1ccc(F)cc1S(=O)(=O)Nc1ccc2c(c1)OCCO2 | / | i
CN1CCN(c2ncncc2-c2ccoc2)CC1 | / | i
COC(=O)c1[nH]c2ccc(Cl)cc2c1NC(=O)CCN1CCN(C2CCCCC2)CC1 | >57 | i
CN(C)S(=O)(=O)c1ccc(C(=O)Nc2ccc(CCC(=O)N3CCCC3)cc2)cc1 | >57 | i
O=C(O)c1nccnc1C(=O)Nc1ccc(Br)cn1 | / | i
O=C(CCCNS(=O)(=O)c1cccc2nsnc12)NCc1ccc(F)cc1 | >11 | i
COC(=O)[C@@H]1C2CCC(C(=O)Nc3ccccc3)(CC2)[C@@H]1C(=O)OC | >57 | i
O=C(COC(=O)C1COc2ccccc2O1)Nc1ccc2c(c1)CCC2 (stereo not drawn) | >57 | i
O=C(O)CSc1ccc2ccccc2n1 | >11 | i
O=C(c1ccco1)N1CCC2(CC1)CCN(c1ccc(-c3ccccc3)cc1)CC2 | / | i
CCC(C)Nc1nc(OC)nc(N(C)C#N)n1 (stereo not drawn) | >26 | /
CCOC(=O)C(C(=O)OCC)c1cc(Br)c2noc3c2c1C(=O)c1ccccc1-3 | >57 | i
CCCSc1nc2c(c(=O)n1-c1ccc(OCC)cc1)SCC2 | >57 | i
COc1ccc(OC)c(NS(=O)(=O)c2ccc(N3CCCC3=O)cc2)c1 | >26 | /
O=C(CSc1ncn[nH]1)c1ccc2c(c1)OCO2 | >57 | i
CCCCn1c(CN2CCN(CCO)CC2)nc2ccccc21 | >57 | i
O=S(=O)(Nc1ccccc1F)c1ccc2nsnc2c1 | / | i
CCCNC1=C(C)C(=O)CC1 | >11 | /
CCOC(=O)c1ccc(N2C(=O)CC(N3CCN(C(=O)c4ccco4)CC3)C2=O)cc1 (stereo not drawn) | >57 | i
Cc1ccc(-c2nnc(SCC(=O)N3CCCC3)o2)cc1 | >57 | i
COc1ccccc1CNC(=O)CCC(=O)Nc1nnc(C)s1 | ? | i
CCN(CC)CCNc1nc2c(c(=O)n(C)c(=O)n2C)n1C/C=C(/C)Cl | >57 | i
Cc1ccc(-[n+]2cc(=O)o[nH]2)cc1 | / | i
Cc1cnn(C(=S)NCc2ccc(Cl)cc2)c1 | >57 | i
O=C(Cn1c(=O)c2c(ncn2Cc2ccccc2)n(Cc2ccccc2)c1=O)N1CCCC1 | >57 | i
Cc1ccccc1C(=O)NC1CCN(Cc2nnnn2Cc2ccccc2)CC1 | >57 | i
O=C(NCC(c1cccnc1)N1CCN(c2ccc(F)cc2)CC1)C1CCCCC1 (stereo not drawn) | >57 | i
COc1ncc2nc(-c3ccc(F)cc3)c(=O)n(CCC#N)c2n1 | / | i
CC(=O)NCCc1cc2ccc(C)cc2[nH]c1=O | >57 | i
CC(=O)CSCc1ccccn1 | / | i
CCCN1CCN(C(=O)CCCn2c(C)c3cnn(-c4ccccc4)c(=O)c3c2C)CC1 | / | i
CC(=O)/C(CN1CCCCC1)=N\O | >57 | i
O=C(NC1CCCCC1)c1ccc(CS(=O)(=O)Cc2ccccc2F)o1 | >57 | i
CCCCn1c(=O)n(CC(=O)NCc2ccc(C)cc2)c(=O)c2c1nc(CO)n2CCC | >57 | i
CCOc1ccc(/C(O)=C2/C(=O)C(=O)N(CC3CCCO3)C2c2ccc(C)o2)cc1 (stereo not drawn) | / | i
COc1cc(C(=O)N(Cc2ccc(N(C)C)cc2)C2CCS(=O)(=O)C2)cc(OC)c1OC (stereo not drawn) | >57 | i
CCOC(=O)C1=C(C)NC(C)=C(C(=O)OC)[C@@H]1c1cccc([N+](=O)[O-])c1 | / | i
Cc1ccc2nsnc2c1S(=O)(=O)N(CCO)Cc1cc2cc3c(cc2[nH]c1=O)OCCO3 | >57 | i
Cc1occc1C(=O)Nc1ccccc1C(=O)O | / | i
CCC(CC)C(=O)Nc1cccc(C(=O)N2CCCC2)c1 | >57 | i
CCC(CC)C(=O)Nc1ccccc1NC(C)=O | / | i
COc1ccccc1CCn1c(=O)c(-c2cccc(Cl)c2)nc2cncnc21 | / | i
COc1ccccc1NC(=O)CSc1ccc2nnc(-c3cccnc3)n2n1 | / | i
Cc1cc(=S)cc(C)n1CCCO | >57 | i
CS(=O)(=O)Nc1cccc(-c2ccc3ncnc(NCCN4CCOCC4)c3c2)c1 | / | i
CCN(CC)S(=O)(=O)c1cccc2c(N(C)C)cccc12 | >26 | /
CCOc1ccc2nc(NCCCNS(=O)(=O)c3ccccc3)c(C#N)cc2c1 | / | i
O=S(=O)(Cc1nc2ccccc2s1)c1ccccc1 | >57 | i
Cc1cc(C(=O)CN2C(=O)NC3(CCCc4ccccc43)C2=O)c(C)n1Cc1cccs1 (stereo not drawn) | / | i
c1ccc(-c2nnc(CN3CCC4(CC3)OCCO4)o2)cc1 | >57 | i
Cc1cc(C)nc(N2CCC(C(=O)Nc3ccc4c(c3)OCO4)CC2)n1 | >57 | i

As a short view, some entries already given:
Compound | PK Bst | TsaE inh
CN(C)c1ccc(C(=O)c2ccc(N(C)C)c(N)c2)cc1N | >57 | i
Cc1cc(=O)n2nc(N3CCCC(C(=O)NCc4ccc5c(c4)OCO5)C3)sc2n1 (stereo not drawn) | >57 | i

The listing picks up with the seven entries that preceded the break.
Compound | PK Bst | TsaE inh
CS(=O)(=O)Nc1cccc(-c2ccc3ncnc(NCCN4CCOCC4)c3c2)c1 | / | i
CCN(CC)S(=O)(=O)c1cccc2c(N(C)C)cccc12 | >26 | /
CCOc1ccc2nc(NCCCNS(=O)(=O)c3ccccc3)c(C#N)cc2c1 | / | i
O=S(=O)(Cc1nc2ccccc2s1)c1ccccc1 | >57 | i
Cc1cc(C(=O)CN2C(=O)NC3(CCCc4ccccc43)C2=O)c(C)n1Cc1cccs1 (stereo not drawn) | / | i
c1ccc(-c2nnc(CN3CCC4(CC3)OCCO4)o2)cc1 | >57 | i
Cc1cc(C)nc(N2CCC(C(=O)Nc3ccc4c(c3)OCO4)CC2)n1 | >57 | i
O=c1[nH]nc(CSCc2ccccc2Cl)[nH]1 | >57 | i
O=C(Cc1ccc(Br)cc1)N1CCCCCC1 | >57 | i
CC(=O)N1CCc2cc(S(=O)(=O)NCCC3=CCCCC3)ccc21 | >57 | i
Cc1ccc(F)c(NC(=O)C2CCCCC2C(=O)O)c1 (stereo not drawn) | / | i
CC1(C)[C@@H]2CC[C@]1(CC(=O)O)[C@H](Cl)C2 | / | i
COc1ccc(C(=O)Nc2nnc(Cc3cccs3)s2)cc1OC | >57 | i
CC1CCc2c(C(=O)N3CCN(S(=O)(=O)c4cccs4)CC3)csc2C1 (stereo not drawn) | >57 | i
Cc1cc(C(=O)NCC2CCCO2)n(-c2ccccc2)n1 (stereo not drawn) | / | i
CCCC(=O)NC(Nc1ccc(S(=O)(=O)Nc2cc(C)on2)cc1)(C(=O)OCC)C(F)(F)F (stereo not drawn) | >57 | i
O=C(NC1CCCCC1)N1CCCCCCC1 | >57 | i
CCOC(=O)Cn1c(=O)n(CC(=O)OCC)c2ccccc21 | >57 | i
CC(OC(=O)CN(C)S(=O)(=O)c1ccc(Cl)cc1)C(=O)Nc1ccc(N2CCOCC2)cc1 (stereo not drawn) | >57 | i

New compounds follow.
Order of results – PK Bst | TsaE inh
COc1ccc(CNc2ccnc(-c3ccccc3CN(C)C)n2)c(OC)c1
    / | i
CC1=C(C(=O)OC(C)(C)C)C(c2ccco2)C(C#N)=C(N)O1 (stereo not drawn)
    >57 | i
O=C(NCC1CCCO1)c1c(O)c2cccc3c2n(c1=O)CCC3 (stereo not drawn)
    >57 | i
CCOc1ccccc1Nc1ncnc2c1cnn2-c1ccccc1
    / | i
O=c1c2sc3nc(N4CCOCC4)c4c(c3c2ncn1Cc1ccco1)CCCC4
    >26 | /
CC1=NC(C(F)(F)F)(C(F)(F)F)C(C#N)=C(C)N1
    >57 | i
COC(=O)Cc1ccc(NC(=O)c2cccs2)cc1
    / | i
COC(=O)c1ccc(COC(=O)c2c(C)nn(Cc3ccccc3Cl)c2Cl)o1
    >57 | i
Cc1ccc(-c2sc(C)nc2CC(=O)O)cc1
    >57 | i
c1ccc(SCc2nc(-c3ccccn3)no2)cc1
    >57 | i
Cc1ccc(CNC(=O)C2CCCN(S(=O)(=O)c3cnc[nH]3)C2)cc1 (stereo not drawn)
    / | i
O=c1nc2n(c3ccccc13)Cc1ccccc1-2
    >11 | i
CCOC(=O)c1cc(C(C)=O)c(=O)n(C)c1N
    >57 | i
COc1ccc(NC(=O)c2cnc(C)cn2)c2ncccc12
    >57 | i
CN1CCN(C2=Nc3cc(Cl)ccc3Nc3ccccc32)CC1
    >26 | i
Cc1ccc(N2CC(c3nc4ccccc4[nH]3)CC2=O)c(C)c1 (stereo not drawn)
    / | i
CSC1=N/C(=C\c2ccc(C)o2)C(=O)S1
    / | i
Cc1cccc(-c2nc(CN3CCCC(C(=O)NC4CCCCC4)C3)c(C)o2)c1 (stereo not drawn)
    >57 | i
O=c1oc2ccccc2cc1NCc1ccccc1O
    / | i
O=C(Nc1nccs1)c1ccc(CSc2nnnn2-c2ccccc2)cc1
    >57 | i
N=c1c(C(=O)NCc2ccc(F)cc2)cc2c(=O)n3ccccc3nc2n1CCCN1CCOCC1
    >57 | i
CCCn1c(SCC#N)nc2c(c1=O)C1(CCCC1)Cc1ccccc1-2
    >26 | /
Cc1nnc(NC(=O)c2ccc(C)c(S(=O)(=O)N3CCCCCC3)c2)s1
    >57 | i
CCOC(=O)CNC(=O)CSc1ncnc2c1cnn2-c1ccc(Cl)cc1
    >57 | i
CCOc1ccc(C(C#N)N2CCOCC2)cc1OC (stereo not drawn)
    >57 | i
COC(=O)CCC(=O)c1oc2ccc(Cl)cc2c1NC(=O)CCCN1C(=O)c2ccccc2C1=O
    >57 | i
COc1ccc(OC)c(S(=O)(=O)Nc2ccc3oc4c(c3c2)C(=O)CCC4)c1
    >57 | i
CC(C(=O)Nc1sccc1C(N)=O)N1C(=O)C2CC=CCC2C1=O (stereo not drawn)
    >57 | i
CC(=O)c1ccc(N2C(=O)NC3(CCCCC3)C2=O)cc1
    >57 | i
Nc1nnc(COc2cccc(C(F)(F)F)c2)s1
    >57 | i
CC1NC(=O)N(C)C2NC(=O)N(C)C(c3ccccc3)C12 (stereo not drawn)
    >57 | i
Cc1cccc(NC(=O)c2ccc(NS(=O)(=O)c3c(C)noc3C)cc2)c1
    >57 | i
COC(=O)c1[nH]c2cc(OC)ccc2c1NC(=O)CCN1CCN(Cc2ccc3c(c2)OCO3)CC1
    >57 | i
COc1ccc2cc(C(=O)N3CCOCC3)sc(=O)c2c1OC
    >57 | i
O=C(CSc1nnc(-c2cccnc2)n1Cc1ccco1)c1ccc2ccccc2c1
    >57 | i
COc1ccc(-c2nnc(-c3ccc(N)cc3)o2)cc1
    3.3* | i
O=C(C1COc2ccccc2O1)N1CCn2c(nc3ccccc32)C1 (stereo not drawn)
    / | i
C=CCn1c(CNC(=O)CCC)nc2ccccc21
    >57 | i
CNS(=O)(=O)c1cccc(C(=O)NCC(c2cccs2)N(C)C)c1 (stereo not drawn)
    >57 | i
CCOC(=O)Nc1ccc2c(C)cc(=O)oc2c1
    / | i
O=C1[C@@H]2[C@@H]3C=C[C@H]([C@@H]2C(=O)N1CN1CCSCC1)[C@@H]1[C@@H]2C(=O)N(CN4CCSCC4)C(=O)[C@@H]2[C@H]31
    / | i
COc1ccc(C(=O)N2CCN=C2SCc2cccnc2)cc1OC
    / | i
CCCCn1nnnc1NCc1ccc(OC)c(OC)c1OC
    >57 | i
Cc1ccc(N=C2NC(=O)CS2)c(C)c1
    >57 | i
CC1Cc2ccccc2N1C(=O)Cn1nnc(-c2ccccc2NC(=O)C2CCC2)n1 (stereo not drawn)
    >57 | i
COc1ccc(Cc2nnc(SC)[nH]c2=O)cc1OC
    >57 | i
Cc1ccc(N=Cc2nc(-c3ccco3)oc2O)cc1
    ? | i
COC(=O)c1cc(=O)c2ccc(OC)cc2o1
    / | i
Cn1nc(-c2ccc(Cl)cc2)c2cc(C(=O)N3CCCC3)sc21
    / | i
O=C(c1csnn1)N1CCC[C@@]2(CCN(c3ccccc3)C2)C1
    / | i
O=C(CCc1ccccc1)Nc1ccc(NC(=O)C2CC2)nc1
    >57 | i
COc1ccc2nc(NC(=O)C3CCCN(S(=O)(=O)c4cccs4)C3)sc2c1 (stereo not drawn)
    >57 | i
O=C(c1cnc2sccn2c1=O)N1CCCc2ccccc21
    / | i
CC[C@H]1OC(=O)C[C@@H](O)[C@H](C)[C@@H](O[C@@H]2O[C@H](C)C[C@H](N(C)C)[C@H]2O)[C@@H](CC=O)C[C@@H](C)C(=O)C=C[C@]2(C)O[C@H]2[C@@H]1C
    >26 | /
CCOc1ccccc1Oc1coc2cc(O)ccc2c1=O
    >57 | i
C[C@@]12C[C@@H](O)[C@H]3[C@@H](CCC4=CC(=O)CC[C@]43C)[C@H]1CC[C@H]2C(=O)CO
    / | i

From PubChem
